# GIV Gai3 FP: inhibitors of GIV GBA-motif binding to rat Galpha-i3 | Galpha-i3/FITC-GIV peptide fluorescence polarization, 90 min; active compounds read low; scaled: aluminum fluoride 0%, vehicle 100% | percent of control (FP), % (no concentration beside the values) | P08753 | 0.42% of 210,000 active;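 active = replicate mean at 85% of control or lower, very high polarization wells dropped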;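 note: wells of about 15 µL received 100 nL stock; the first replicate is given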
# Target sequence (P08753 whole entry, looked up): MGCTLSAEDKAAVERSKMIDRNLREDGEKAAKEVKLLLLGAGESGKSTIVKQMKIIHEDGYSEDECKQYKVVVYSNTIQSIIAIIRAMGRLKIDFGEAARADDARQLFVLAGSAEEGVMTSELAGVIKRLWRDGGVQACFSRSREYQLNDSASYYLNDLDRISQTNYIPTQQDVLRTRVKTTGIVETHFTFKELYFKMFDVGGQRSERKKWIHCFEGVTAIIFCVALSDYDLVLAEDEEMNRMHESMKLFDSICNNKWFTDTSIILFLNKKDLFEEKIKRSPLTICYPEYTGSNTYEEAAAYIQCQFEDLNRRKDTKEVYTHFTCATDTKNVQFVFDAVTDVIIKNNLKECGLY
# Sa growth 42C: S. aureus growth inhibition | S. aureus RN4220 growth, OD600, 20 h, 42 °C; active compounds read low | relative growth, % (concentration not given with the values) | 0.53% of 170,000 active | AID 720641;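 active = growth at 42 °C up to 50% and 20 or more points under that at 30 °C, or under 10% at both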;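 note: 300 nL library stock went into each well; scaled to the means of positive and negative controls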
# HCMV NEC inh: inhibitors of HCMV UL50-UL53 nuclear egress complex interaction; HTRF UL50-UL53 interaction, normalized percent inhibition; inhibition, % (no concentration beside the values); 0.15% of 190,000 active; AID 1918969;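 active = both replicates at 50% or more, plus weaker picks with an unusually low signal ratio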;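 note: stock transfer was 100 nL into about 20 µL; 0% = negative control wells and 100% = wells with untagged competitor protein; inactives centre near -12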
# Sa growth 42C second temp: also measured in Sa growth 42C; calls as there; relative growth, %; measured here: growth at 30 °C;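 optical density after 20 h as mean of two plates; 100% = untreated growth and lower means inhibition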
# Starred values were filed as active, the others as inactive; nt = no result given; & = joins results of further samples.
SMILES,GIV Gai3 FP,Sa growth 42C,Sa growth 42C second temp,HCMV NEC inh
COc1ccc(C(=O)c2c(N)c(-c3nc(-c4ccc(OC)cc4)cs3)c3ccccn23)cc1,104,114,92,-8
O=[N+]([O-])c1c(Nc2ccc(O)cc2)cc(N2CCOCC2)c2nonc12,101,nt,nt,-86
COC(=O)c1ccc(-n2c(CCC(=O)O)ccc2-c2ccc(C)cc2)cc1,108,104,87,-42
O=C(C1Cc2ccccc2N1C(=O)c1ccccc1)N1CCCC1 (stereo not given),100,102,103,7
CC1CCc2sc(-c3nnc(SCC(=O)c4ccc(NS(C)(=O)=O)cc4)o3)cc2C1 (stereo not given),nt,91,89,-33
Cc1ccc2c(c1)CC(C)N2S(=O)(=O)c1nnc(NC(=O)c2ccccc2F)s1 (stereo not given),102,109,76,1
CC(Sc1ccc2c(c1)OCCO2)C(N)=O (stereo not given),nt,97,96,5
O=C(Cc1cccs1)Nc1nc(-c2ccccc2)cs1,nt,98,90,-10
CC(NC(=O)c1cc2sccc2n1Cc1ccc(F)cc1)c1ccccc1 (stereo not given),104,98,79,-12
O=C(c1ccco1)N1CCCCCCC1,104,111,86,-25
CCOC(=O)NN=C1c2ccccc2-c2ccccc21,93,84,89,-56
O=C(/C=C/c1ccc(-c2ccc(F)cc2)o1)N1CCCCC1,nt,58,46,-84
C=CCn1c2ccccc2c2nnc(SCC(=O)Nc3ccc(S(=O)(=O)Nc4onc(C)c4C)cc3)nc21,108,102,81,-30
Cc1ccc(C(=O)Nc2ccc(-c3cn4cccnc4n3)cc2)cc1C,103,119,75,-26
O=C(COc1ccc2ccccc2c1)NN1CCCCC1,103,107,98,-3
CC(C)Cc1cc(-c2nn3c(-c4ccccc4F)nnc3s2)n[nH]1,105,nt,nt,-24
CC(C(=O)N(C)Cc1ccccc1)n1ccc2cc(S(=O)(=O)N3CCCCCC3)ccc21 (stereo not given),104,98,95,-19
COC(=O)C12CC3CC(C1)C(=O)C(C3)C2,nt,113,89,-12
CNC(=S)NN(c1ccccc1)c1ccccc1,nt,92,94,-12
COc1cc2c(C(=O)Nc3ccc(C)cc3Br)cn(C)c(=O)c2cc1OC,106,89,96,14
COC(=O)c1ccc2c(=O)n(CCCC(=O)NC3CCN(Cc4ccccc4)CC3)c(=S)[nH]c2c1,108,nt,nt,-35
O=C1CCCCC1Sc1nnc2n(-c3ccccc3)c(=O)c3ccccc3n12 (stereo not given),nt,113,93,-32
O=S(=O)(Nc1ccccc1Oc1ccccc1)c1ccc(-c2ccon2)s1,101,155,78,0
CCCC12CN3CC(C)(CN(C1)C3c1c[nH]c3ccc(OC)cc13)C2=O (stereo not given),102,111,98,10
C=Cc1ccc(CN2C(=O)CC(c3ccc(OC)cc3)=Nc3ccccc32)cc1,106,nt,nt,0
COc1ccc2oc(-c3ccc(C)c(NC(=O)c4ccc5c(c4)OCCO5)c3)nc2c1,109&101,109,94,-15&-73
COc1ccc(-c2cc(C(=O)Nc3cccnc3)c3ccccc3n2)cc1,103,nt,nt,-32
Cc1ccc(C(=O)Nc2nnc(S(=O)(=O)N3CCCc4ccccc43)s2)cc1,105,143,86,-23
COc1ccc(S(=O)(=O)N(CC(N)=O)Cc2ccccc2)cc1C,109,95,97,6
O=C1c2ccccc2C(=O)N1c1nc2nc(-c3ccccc3)cc(=O)n2[nH]1,99,98,105,18
N#Cc1cccnc1Br,101,98,30,4
Cc1ccc(CNC(=O)c2ccccc2N(C)S(C)(=O)=O)cc1,105,97,106,4
CCOc1ccc(CNC(=O)CN2C(=O)CSc3c2c(C)nn3-c2ccccc2)cc1,104,125,77,nt
CC(Nc1ncccn1)C1CC2CCC1C2 (stereo not given),nt,100,88,-34
Cc1nccn1CC(O)Cn1c2ccccc2c2ccccc21 (stereo not given),nt,107,96,-3
Cc1nc2nc(SCC(=O)N(Cc3ccccc3)C(C)C)nn2c(C)c1Cc1ccccc1Cl,101,92,66,-8
C=Cc1ccc(Cn2nc3n(C(C)C)c(=O)c4ccc(C(=O)NC(C)C)cc4n3c2=O)cc1,106,nt,nt,-41
CSCc1nnc(NC(=O)c2ccc(S(=O)(=O)N(C)Cc3ccccc3)cc2)o1,103,2.4*,-0.6*,-33
O=S(=O)(c1ccc(-c2nnc(C3CC3)o2)s1)N1CCOCC1,106,nt,nt,-26
O=C(c1ccccc1)c1nc2ccccc2[nH]1,100,80,73,nt
COc1ccc(NC(=O)c2cccn(OCc3ccccc3)c2=O)cc1,106,113,90,nt
O=C(Cc1ccccc1)NCC(=O)OCc1ccccc1F,103,103,99,-6
CC(=O)OCCn1c(=O)c2ccccc2c2ccccc2c1=O,99,109,83,nt
CCSc1nc(C)cc(COC)c1C#N,nt,95,93,1
CC(C)(C)C1CCc2c(sc(NC(=O)Cn3nnc(-c4ccccc4Cl)n3)c2C#N)C1 (stereo not given),104,96,89,-10
O=C(NCCc1ccccc1)c1noc2c1CCCCC2,106,116,91,nt
N=C1SCCN1CC(=O)c1ccc(O)cc1,108,100,93,13
CCc1nnc(SC(CC)C(=O)NCCOC)c2cc3occc3n12 (stereo not given),113,93,87,nt
O=c1[nH]c2ccccc2c(=O)n1Cc1ccccc1,103,114,93,5
COc1ccc(-c2nc(CNS(=O)(=O)c3ccccc3)cs2)cc1,101,118,93,-22
COc1cc(NC(=O)N(C)CCc2c(C)nn(C)c2C)cc(OC)c1,98,nt,nt,2
Cc1ccc2cccc(SCc3nc(N)nc(Nc4ccccc4)n3)c2n1,104,nt,nt,-40
Cc1cc(C)nc(NS(=O)(=O)c2ccc(NC(=O)c3sc4nc5c(cc4c3N)CCCCC5)cc2)n1,104,nt,nt,-34
COc1cccc(C(=O)NCC(=O)OCc2cc(=O)n3c(C)csc3n2)c1,107,98,87,nt
Cc1cc(C)n(-c2nc3ccccc3[nH]c2=O)n1,98,108&101,84&83,-21&-51
Cc1ccc(OCCSc2ncnc3ccccc23)cc1,nt,94,92,7
FC(F)Oc1ccc(/C=N/n2cnnc2)c(OC(F)F)c1,nt,96,88,-21
CN1CCc2c(sc3[nH]c(=S)n(C4CCCCC4)c(=O)c23)C1,217,nt,nt,-60
O=C(NCc1ccco1)C1CCN(C(=O)N2CCOc3ccccc32)CC1,97,113,100,-22
COc1ccc(CCNC(=O)C(=O)Nc2ccc(C)cc2)cc1OC,106,105,99,nt

# (listing goes on)
SMILES,GIV Gai3 FP,Sa growth 42C,Sa growth 42C second temp,HCMV NEC inh
CC(C)C(=O)Nc1cc(Cl)cc(Cl)c1,103,nt,nt,-4
N#CCCNS(=O)(=O)c1ccc(C(=O)NCC23CC4CC(CC(C4)C2)C3)cc1,nt,91,92,-18
CCn1nnc2cc(C(=O)N(C)Cc3ccc(-c4ccc(Cl)cc4)o3)ccc21,nt,95,39,-19
CCOc1ccc(-c2c(C)nn3c(C)c(C(=O)Nc4cc(C)cc(C)c4)cnc23)cc1OCC,112,94,102,nt
COc1cccc(S(=O)(=O)Nc2cc3c(cc2Oc2ccccc2)n(C)c(=O)c(=O)n3C)c1,94,nt,nt,-32
CN(C)c1ccc(C(=O)NCc2cc(Cl)c3c(c2)OCCCO3)cc1,nt,80,92,-2
COC(=O)C1(c2ccccc2)NC(c2cccs2)C2C(=O)N(C)C(=O)C21 (stereo not given),106,128,92,-15
Clc1cc(N2CCOCC2)ncn1,108,102,114,20
O=C(/C=C/c1ccc2c(c1)OCCO2)NCc1ccco1,nt,115,85,-48
CN(C)S(=O)(=O)c1ccc2c(c1)oc(=O)c1cc(S(=O)(=O)N(C)C)ccc12,94,82,95,nt
Cc1ccc2[nH]c(=O)c(CNc3ccc(N4CCN(C)CC4)cc3)cc2c1,104,75,85,-26
Cc1ccc(C)c(CN2C(=O)c3ccccc3S(=O)(=O)c3ccc(C(=O)N4CCOCC4)cc32)c1,113,87,95,-2

# Structures from the list above containing a furan ring, fused or not, in the order listed:
SMILES,GIV Gai3 FP,Sa growth 42C,Sa growth 42C second temp,HCMV NEC inh
O=C(c1ccco1)N1CCCCCCC1,104,111,86,-25
O=C(/C=C/c1ccc(-c2ccc(F)cc2)o1)N1CCCCC1,nt,58,46,-84
CCc1nnc(SC(CC)C(=O)NCCOC)c2cc3occc3n12 (stereo not given),113,93,87,nt
O=C(NCc1ccco1)C1CCN(C(=O)N2CCOc3ccccc32)CC1,97,113,100,-22
CCn1nnc2cc(C(=O)N(C)Cc3ccc(-c4ccc(Cl)cc4)o3)ccc21,nt,95,39,-19
O=C(/C=C/c1ccc2c(c1)OCCO2)NCc1ccco1,nt,115,85,-48

# (cont.)
SMILES,GIV Gai3 FP,Sa growth 42C,Sa growth 42C second temp,HCMV NEC inh
Cc1nnc2c(SCc3ccc(Cl)cc3)nc3ccccc3n12,105,nt,nt,-16
Nc1nc(CSc2nc3ccccc3s2)nc(N2CCOCC2)n1,103,96,101,11
O=C(CC1(O)C(=O)Nc2ccc(Br)cc21)c1ccc2c(c1)CCCC2 (stereo not given),103,nt,nt,-8
CCCn1c(=O)c2sccc2n2c(CCC(=O)NCCc3ccc(S(N)(=O)=O)cc3)nnc12,99,nt,nt,-16
CC(C)C(Sc1ccc2c(c1)OCCO2)C(=O)NC(N)=O (stereo not given),nt,92,102,5
CC12CCC(C/C1=N\Nc1nc(O)c(C3=c4ccccc4=NC3=O)s1)C2(C)C (stereo not given),105,119,93,-21
O=C(NCC1(N2CCCCC2)CCCCC1)c1ccc(N2CCCC2=O)cc1,nt,101,96,-22
O=c1c2ccccc2nc2n1CCc1c-2[nH]c2ccccc12,102,nt,nt,-4&-31
CC(=O)c1ccc(NC(=O)C2CCCN(S(=O)(=O)c3ccc4c(c3)CCCN4C(C)=O)C2)cc1 (stereo not given),97,98,80,nt
CCCN1CCN(c2ncnc3sc(C(=O)Nc4c(C)cc(C)cc4C)c(C)c23)CC1,104,117,90,nt
O=C(NCCN1CCOCC1)C1CCN(C(=O)c2cc3sccc3n2Cc2ccc(F)cc2)CC1,106,99,87,4
CC1=C(C)CC(C(=O)N2CCN(Cc3ccccc3)CC2)C(C(=O)O)C1 (stereo not given),nt,81,95,2
COC(=O)CN(n1cnnc1)S(=O)(=O)c1ccc(C)cc1,99,99,99,-1
COc1ccc(CNC(=O)C2CCCN(c3nc4ncccc4n4cccc34)C2)cc1 (stereo not given),111,nt,nt,5
O=C(NCc1ccc(Cl)cc1)C1CCN(S(=O)(=O)c2cccc3nonc23)CC1,103,113,88,-10
Cc1cc(C)c(C#N)c(SCC(=O)c2ccc(Br)cc2)n1,99,nt,nt,-16
COc1cccc2c1C(=O)c1c(O)c3c(c(O)c1C2=O)C[C@@](O)(C(C)=O)C[C@@H]3O[C@H]1C[C@H](N)[C@H](O)[C@H](C)O1,47*,18&22,0&0,-181&-98&-173
COc1ccc(C2Nc3ccccc3C(=O)N2Cc2ccccc2)cc1COc1ccc([N+](=O)[O-])c(C)c1 (stereo not given),97,nt,nt,-11
COc1cccc(NC(=O)C2CCC(CNS(=O)(=O)c3ccc4c(c3)CCCC(=O)N4)CC2)c1 (stereo not given),99,103,88,nt
CCOc1ncccc1C(=O)Nc1ccc2c(c1)OCCO2,nt,81,85,-23
COc1ccc2cc3c(nc2c1)N(C(=O)COc1ccccc1)CC3,108,nt,nt,-3
COc1cccc(Cl)c1NC(=O)N1CCN(c2cc(C)nc3ccccc23)CC1,101,102,94,-27
O=C(CCCN1CCOCC1)c1ccc2c(c1)OCCO2,97,123,101,-15
Cc1cc(C)cc(N(CC(=O)Nc2c(C)cc(C)cc2C)S(=O)(=O)c2c(C)nn(C)c2C)c1,102,78,79,nt
Cc1cccc(C(=O)NC(=NCCc2cnc[nH]2)Nc2nc(C)cc(C)n2)c1,100,94,81,-20
CC(C)c1cc2cc3ccc(=O)oc3cc2o1,104,98,73,-15
CCSc1nc2sc3c(c2c(=O)n1CCc1ccccc1)CCC3,101,95,98,nt
CCN(CC)C(=O)c1sc2c(c1C)c(=O)n(-c1ccccc1)c(=O)n2Cc1c(C)cc(C)cc1C,98,83,84,nt
COc1cccc(CN2CCc3nc(Nc4ccc5c(c4)OCCO5)ncc3C2)c1OC,103,106,93,nt
COc1ccc(C(=O)N2CCN(c3cc(N(C)C)nc(C)n3)CC2)cc1OC,106,nt,nt,-10
Cn1nc(CC(=O)NC2CCCCCC2)c2ccccc2c1=O,nt,98,87,2
Cc1cc(C)c2c(CC(=O)N(Cc3ccccc3)C3CCS(=O)(=O)C3)coc2c1 (stereo not given),106,126,77,-7
CC(=O)OC[C@H]1O[C@@H](n2ncc(=O)[nH]c2=O)[C@H](OC(C)=O)C1OC(C)=O (stereo not given in full),111,107,92,-10
O=C1CS/C(=N/C(=O)NC2CCCCC2)N1,nt,90,89,-5
Cc1ccc(C)c(Nc2ncnc3c2cnn3-c2ccc(F)cc2)c1,101,89,75,nt
CCOc1ccc2cc(-c3nnc(-c4cccc(Br)c4)o3)c(=O)oc2c1,100,nt,nt,-11
